Calb FLC: C. albicans growth modulation with fluconazole; C. albicans CaCi-2 (fluconazole-resistant clinical isolate) + fluconazole, Alamar Blue growth, 48 h; growth inhibition, % (no concentration beside the values); 300,000 tested, 0.57% active;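 active = most replicates above 75%; inconclusive = exactly half above 75%; inactive = most below 75%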;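 also: all wells also contain fluconazole at 8 µg/ml as a sub-toxic cotreatment; 0% = median of DMSO wells and 100% = median of geldanamycin control wells; wells of about 8 µL received 7.5 nL stock; the first replicate is given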
RanGTP-Imp inh: disruptors of Ran-importin-beta complex formation – biochemical, FRET, CFP-Ran, YFP-importin-beta, homogeneous, primary screen. cell-free CFP-Ran/YFP-importin-beta FRET ratio. inhibition, % (concentration not given with the values). 300,000 tested, 1.1% active. AID 2216;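 active = most replicates above 15%; inconclusive = exactly half above 15%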;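 also: 0% = DMSO wells and 100% = Ran loaded with GDP instead of GTP; wells of about 40 µL received 100 nL stock; the first replicate is given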
rRNA inh HTS: inhibitors of bacterial rRNA selective over humanized ribosomes; GFP signal change (wild-type ribosome), % (no concentration beside the values); E. coli WT GFP vs humanized-ribosome RFP mutants, fluorescence, 24 h; hits give low values; DMSO median 0, no signal -100; AID 720706; 350,000 tested, 1.6% active;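 active = significant combined selectivity score with lowered wild-type GFP, culture density cut under 30%, mutant RFP and density less affected; inactive = any of these conditions unmet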; also: one replicate is shown; some compounds called inactive have numbers as strong as hits
AF4-AF9 inh: MLL-AF4/AF9 protein interaction inhibition; P42568; AlphaScreen, biotin-AF4 peptide binding to FLAG-AF9; inhibition, % at 10 µM; 350,000 tested, 0.47% active; AID 651704;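 active = every replicate reaching a set inhibition limit, whatever the replicate mean, cut at about 25% in these data; inconclusive = mean inhibition reaches that limit but some replicates miss it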;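 also: 0% = plate neutral control median and 100% = total signal loss; the record names both 10 and 1 µM as test concentration; the first replicate is given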
Target sequence (P42568 whole entry, looked up): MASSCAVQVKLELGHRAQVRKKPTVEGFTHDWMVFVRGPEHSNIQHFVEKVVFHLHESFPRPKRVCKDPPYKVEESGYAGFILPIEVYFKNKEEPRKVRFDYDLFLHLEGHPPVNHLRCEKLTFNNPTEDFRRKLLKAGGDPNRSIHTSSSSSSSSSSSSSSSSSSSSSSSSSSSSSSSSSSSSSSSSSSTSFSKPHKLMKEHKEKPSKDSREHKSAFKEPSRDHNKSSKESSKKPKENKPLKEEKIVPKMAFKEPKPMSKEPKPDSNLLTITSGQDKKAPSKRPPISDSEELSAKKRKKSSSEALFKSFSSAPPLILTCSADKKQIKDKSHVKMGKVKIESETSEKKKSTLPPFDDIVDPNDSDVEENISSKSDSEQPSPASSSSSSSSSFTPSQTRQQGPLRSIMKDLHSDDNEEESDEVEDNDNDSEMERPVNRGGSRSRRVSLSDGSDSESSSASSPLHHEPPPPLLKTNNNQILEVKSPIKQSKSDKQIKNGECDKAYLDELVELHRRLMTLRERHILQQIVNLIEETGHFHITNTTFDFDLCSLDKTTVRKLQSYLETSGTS
Beta cell apopt: beta cell apoptosis inhibition | AID 435005 | INS-1E cytokine-induced death, ATP luminescence, 48 h; percent of positive-control rescue, neutral wells zero | protection from apoptosis, % (concentration not given with the values) | 300,000 tested, 0.8% active;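 active = all replicates at 75% or more, or half of them and the mean; inconclusive = half reach 75% but not the mean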;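 also: 0% = cytokine-treated negative control wells and 100% = positive control rescue; higher means more ATP so stronger rescue from cytokine killing; wells of about 40 µL received 100 nL stock; the first replicate is given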
ALR inh: inhibitors of human sulfhydryl oxidase ALR | AID 485317 | purified ALR, DTT oxidation, H2O2 HRP-luminol luminescence | P55789 | inhibition, % (no concentration beside the values) | 290,000 tested, 3.8% active;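 active = mean and each replicate at 75% or more; inconclusive = only one of the two met; inactive = neither met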;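 also: stock transfer was 7.5 nL into about 7.5 µL; 0% = neutral wells and 100% = wells with inactivated enzyme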
Target sequence (P55789 whole entry, looked up): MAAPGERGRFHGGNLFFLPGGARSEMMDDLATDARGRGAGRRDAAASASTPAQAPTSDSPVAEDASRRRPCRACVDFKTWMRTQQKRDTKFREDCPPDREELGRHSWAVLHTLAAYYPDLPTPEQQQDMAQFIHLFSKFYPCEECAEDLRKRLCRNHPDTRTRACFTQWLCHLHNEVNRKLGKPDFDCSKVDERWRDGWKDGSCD
T cruzi repl: T. cruzi replication inhibition. inhibition, % (test concentration not listed). T. cruzi beta-gal in NIH3T3, luminescence, 90 h. 300,000 tested, 1.4% active;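 active = mean inhibition across valid replicates above about 55%, limit read from the data; inconclusive = mean below that limit but half or more replicates reach it; inactive = mean below it, under half of replicates reach it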;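 also: signal also drops with host cell toxicity which is not excluded here; 0% = plate median of DMSO wells and 100% = zero luminescence signal; higher percent means less beta-gal luminescence so fewer parasites; stock transfer was 50 nL into about 50 µL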
FGF22 binding: FGF22 (human) thermal shift binding. Q9HCT0. recombinant FGF22 thermal shift, SYPRO orange fluorescence; percent of sucrose octasulfate shift, DMSO zero. calls only at 9.99 µM. 340,000 tested, 1.5% active;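 active = melting point raised past a set limit in the mean and every replicate; inconclusive = no clear call; three in four hits are not shown here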
Target sequence (Q9HCT0 whole entry, looked up): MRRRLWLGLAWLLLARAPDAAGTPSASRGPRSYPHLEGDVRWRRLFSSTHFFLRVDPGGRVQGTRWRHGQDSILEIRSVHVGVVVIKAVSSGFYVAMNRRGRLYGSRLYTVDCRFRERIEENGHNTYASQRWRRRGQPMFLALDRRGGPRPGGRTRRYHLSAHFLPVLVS
rRNA inh HTS OD600: recorded beside rRNA inh HTS, whose call it bears; OD600 change, %; measured here: OD600 growth;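 optical density of the mix in the first replicate; 0 = DMSO median and -100 = no signal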
rRNA inh HTS RFP: second read-out of rRNA inh HTS, no call of its own (marks repeat the call); RFP signal change, %; measured here: RFP humanized mutant strains;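 first replicate; 0 = DMSO median and -100 = no signal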
* marks the source's active call; other numbers are inactive results; i = inactive; ? = inconclusive; . = no result given. An excerpt. The share of hits here may be higher or lower than overall.

SMILES	Calb FLC	RanGTP-Imp inh	rRNA inh HTS	rRNA inh HTS OD600	rRNA inh HTS RFP	AF4-AF9 inh	Beta cell apopt	ALR inh	T cruzi repl	FGF22 binding
O=C1COc2ccc(C(=O)COC(=O)c3ccc(F)cc3Cl)cc2N1	.	.	-0.7	12.1	-2.8	-4.1	-5.4	6.3	.	i
Cc1cc2nc(CCN(Cc3cccnc3)C(=S)Nc3ccc(F)cc3)[nH]c2cc1C	0.9	6.4	-0.1	4.6	0.4	-10.2	.	-5.2	61.4*	.
CCOC(=O)c1sc(C)nc1C1CCN(C(=O)OCC)CC1	-7.3	5.3	.	.	.	.	1.5	-15.8	11.1	.
CC(C)(C)OC(=O)N1CCC[C@H]1c1nnc(SCC(=O)Nc2cccc(Cl)c2)o1	2.2	1.7	-17.8	-9.5	-3.4	-1.2	1.0	?	2.6	i
O=C(OCc1nnc(-c2ccccc2)o1)c1ccc2c(c1)C(=O)N(CCc1ccccc1)C2=O	-0.2	1.9	.	.	.	.	-12.8	0.9	-11.1	.
Cc1csc(SCC(=O)Nc2nccs2)n1	3.7	-2.3	4.9	-1.9	0.6	1.6	-0.4	-10.3	-0.9	i
CC(NC(=O)c1ccccc1Br)c1nnc(SCC(=O)NC2=NCCS2)n1C (stereo not drawn)	-11.2	6.2	5.1	5.8	-2.0	3.6	-5.1	2.7	11.1	i
CC[n+]1c(C=C2C=C(C)OC(C)=C2)sc2ccccc21	108.4*	2.7	-38.1	-81.1	-14.2	-0.1	.	.	72.7*	i
Cc1ccc(S(=O)(=O)Nc2ccc(S(=O)(=O)N3CCOCC3)cc2)cc1[N+](=O)[O-]	-4.9	3.5	9.4	7.5	-1.8	1.4	2.2	2.5	10.3	i
C=CCn1c(N)cc(=O)nc1SCC(=O)Nc1ccc2ccccc2c1	4.7	3.0	.	.	.	.	-3.9	98.9*	3.2	.
COc1ccc(-c2c3c(=O)n(C)c(=O)n(C)c3cn2-c2ccc(O)cc2)cc1	-9.5	0.8	0.6	-3.6	-3.0	-42.1	-2.3	89.1*	-12.1	i
COc1ccc(-n2c(Cc3cccn3C)nnc2SCC(N)=O)cc1	9.8	5.4	4.2	-1.9	-2.4	4.4	-9.8	-4.6	-6.2	i
COc1ccc(OC)c(N(CC(=O)N2CCc3ccccc3C2)S(C)(=O)=O)c1	-3.3	-4.2	12.0	5.3	-1.9	1.7	-3.0	-0.4	-7.2	i
CCOC(=O)Oc1ccc(/C=C2\N=C(C)OC2=O)cc1	-4.2	-0.1	11.5	11.6	2.7	-1.1	0.1	.	-7.9	i
O=C(Cc1ccc(Cl)cc1)NNC(=S)NC(=O)c1cccs1	109.0*	2.4	.	.	.	-4.4	62.7	97.8*	-19.7	i
O=C(Nc1ccccc1)c1ccc(=O)n(Cc2cccc(Cl)c2)c1	13.3	7.0	-20.1	-4.3	23.4	-1.2	8.8	18.1	-9.1	i
COc1ccc(C(CNC(=O)COc2ccccc2C)N2CCCCC2)cc1 (stereo not drawn)	.	.	5.9	-2.4	0.4	1.5	3.8	-1.0	.	i
O=C1NC(Cc2c[nH]c3ccccc23)C(=O)N1CCOc1ccc(F)cc1 (stereo not drawn)	-9.8	-0.5	.	.	.	.	-6.7	-6.5	-5.8	.
CCCn1c(N)c(C(=O)CN(C)CC(=O)Nc2c(Cl)cccc2Cl)c(=O)[nH]c1=O	.	.	.	.	.	-3.0	10.2	-5.3	.	i
CCSc1ncnc2c1sc1nc(-c3ccco3)c3c(c12)CC(C)(C)OC3	-0.1	5.0	.	.	.	.	-1.3	-1.7	6.7	.
CCCSc1ccc2nc(NC(=O)OC)[nH]c2c1	.	2.3	.	.	.	0.3	27.9	-0.9	19.9	i
Cc1ccc(S(=O)(=O)NC(=O)N2CCCC(C)(C)C2)cc1	-3.4	13.5	.	.	.	.	1.2	3.4	-1.3	.
CS(=O)(=O)c1ccc2nc(NC(=O)CN3CCN(Cc4ccccc4)CC3)sc2c1	5.3	-3.5	.	.	.	.	-7.5	-4.4	39.1	.
O=C(O)/C=C\C(=O)Nc1ccccc1C#Cc1ccccc1	?	-0.6	.	.	.	.	1.4	?	-40.8	.
O=C(Nc1nc2ccccc2n1CCOc1ccccc1)c1ccco1	10.2	-8.9	.	.	.	.	20.8	-9.1	24.9	.
NC(=O)c1ccccc1OCc1nc2ccccc2s1	9.6	-2.8	8.4	5.2	-0.4	-2.5	-0.3	.	-0.4	i
CC(C)c1ccc(-c2nnc(N)s2)cc1	9.1	-1.3	.	.	.	.	-1.0	.	-3.5	.
CC1CCN(C2CCN(S(=O)(=O)c3ccc(C(F)(F)F)cc3)CC2)CC1	-11.4	2.6	8.6	12.9	2.4	-1.4	-1.3	12.2	12.9	i
Nc1cc(Cl)ccc1C(=O)OCC(=O)NC(=O)NCc1ccccc1	-73.5	0.8	.	.	.	.	-11.5	-6.1	7.3	.
Cc1nn(-c2ccc(Cl)cc2)c2[nH]c(=O)c(CNCc3ccc4c(c3)OCO4)cc12	-20.5	1.6	.	.	.	.	-1.5	18.7	-9.3	.
O=C(Nc1ncccc1Cl)c1cc2ccccc2o1	-7.3	-4.4	0.1	7.2	-4.0	-1.5	-0.2	-5.1	0.6	i
COc1cc(N=c2c([N+](=O)[O-])nn(-c3ccc4c(c3)OCCO4)n2O)cc(OC)c1	-3.5	-1.2	.	.	.	.	6.0	.	46.2	.
COc1ccc2oc(=O)c(C(=O)Nc3ccccc3O)cc2c1	3.5	-2.9	-5.5	-3.1	-2.8	2.6	2.2	-4.5	0.0	i
COc1ccc2nc(N3CCOCC3)cc(C)c2c1	22.1	0.0	.	.	.	.	0.4	39.8	-10.4	.
CC(=O)Nc1ccc(C(=S)NCc2ccco2)cc1	-5.3	0.9	-1.4	5.6	-1.2	.	-4.0	-9.7	-7.7	.
COc1ccc(NS(=O)(=O)c2ccc3[nH]c(=O)[nH]c3c2)cc1OC	4.4	8.9	8.7	5.7	-2.0	-0.8	2.1	-38.4	0.9	i
CCC(=O)c1c(NCCc2ccccc2)cc(C)oc1=O	11.8	3.0	0.6	1.9	-2.0	-1.7	-0.6	-2.8	4.3	i
CCOC(=O)c1c(NC(=O)c2ccc(N3C(=O)C4C5C=CC(C5)C4C3=O)cc2)sc2c1CCCC2 (stereo not drawn)	17.6	-2.7	.	.	.	.	0.2	30.0	43.3	.
C#CCOCCOCCOCCNc1nc(N2CCN(C(=O)C([C@@H](C)CC)n3cc(C(N)CC(C)C)nn3)CC2)nc(N2CCN(C(=O)[C@H](CCCCN)n3cc(C(N)COC(=O)C(F)(F)F)nn3)CC2)n1 (stereo partly drawn)	3.1	2.5	.	.	.	.	-1.5	-4.7	-21.2	.
COc1ccc(C(=O)NNC(=O)C(=O)N2CCCCC2)cc1OC	2.2	?	14.5	14.7	1.8	-0.9	-4.3	-1.8	-23.9	i

The final 6 records of the part before come first, to join the parts:
SMILES	Calb FLC	RanGTP-Imp inh	rRNA inh HTS	rRNA inh HTS OD600	rRNA inh HTS RFP	AF4-AF9 inh	Beta cell apopt	ALR inh	T cruzi repl	FGF22 binding
CC(=O)Nc1ccc(C(=S)NCc2ccco2)cc1	-5.3	0.9	-1.4	5.6	-1.2	.	-4.0	-9.7	-7.7	.
COc1ccc(NS(=O)(=O)c2ccc3[nH]c(=O)[nH]c3c2)cc1OC	4.4	8.9	8.7	5.7	-2.0	-0.8	2.1	-38.4	0.9	i
CCC(=O)c1c(NCCc2ccccc2)cc(C)oc1=O	11.8	3.0	0.6	1.9	-2.0	-1.7	-0.6	-2.8	4.3	i
CCOC(=O)c1c(NC(=O)c2ccc(N3C(=O)C4C5C=CC(C5)C4C3=O)cc2)sc2c1CCCC2 (stereo not drawn)	17.6	-2.7	.	.	.	.	0.2	30.0	43.3	.
C#CCOCCOCCOCCNc1nc(N2CCN(C(=O)C([C@@H](C)CC)n3cc(C(N)CC(C)C)nn3)CC2)nc(N2CCN(C(=O)[C@H](CCCCN)n3cc(C(N)COC(=O)C(F)(F)F)nn3)CC2)n1 (stereo partly drawn)	3.1	2.5	.	.	.	.	-1.5	-4.7	-21.2	.
COc1ccc(C(=O)NNC(=O)C(=O)N2CCCCC2)cc1OC	2.2	?	14.5	14.7	1.8	-0.9	-4.3	-1.8	-23.9	i
Cc1ccccc1S(=O)(=O)NC(=NCc1ccc(F)cc1)c1ccccc1	.	.	-35.8	-68.7	-4.2	-69.2	-0.7	-0.2	.	i
CC(=O)Nc1ccc(NC(=O)C(C)OC(=O)c2c(C)nn(-c3ccccc3)c2Cl)cc1 (stereo not drawn)	.	.	3.7	-21.8	2.1	-5.4	2.3	-3.6	.	i
CC1CN(C2CCN(C(=O)c3cccc(Cl)c3)CC2)CC(C)O1 (stereo not drawn)	6.6	-3.2	.	.	.	.	0.9	-1.4	-3.3	.
C[C@@H](NC(=O)[C@@H]1Cc2ccccc2CN1C(=O)OC(C)(C)C)C(=O)NCc1ccco1	7.4	3.2	8.2	15.4	-1.3	1.2	3.7	-0.5	9.3	i
CCc1ccc(OCc2nnc(SCc3ccc(C(=O)O)cc3)o2)cc1	-6.5	-1.5	-33.8	-44.5	-8.9	-2.6	5.2	.	18.0	i
COC(=O)C1=C(C)N(Cc2ccc(C)cc2)C(=O)/C1=C\c1cc(OC)c(OC)c(OC)c1	-5.8	-0.4	4.7	6.1	2.6	8.7	0.5	-9.2	-9.7	i
CC(C)(C)Sc1ccc2nc3c(n2c1)CCCC3	-4.5	4.3	.	.	.	.	100.7*	1.5	8.4	.
COc1ccc(NC(=O)COc2cccc3c2CCNC3=O)cc1	-0.6	3.3	2.4	9.4	-1.0	-0.3	.	.	-2.4	i
CN1/C(=C\C(=O)Nc2ccc(F)cc2)C(C)(C)c2ccccc21	14.9	-0.1	.	.	.	.	14.7	.	24.5	.
COC(=O)c1c(NC(=O)/C=C/C(=O)O)sc(Cc2ccccc2)c1C	-3.1	-0.2	.	.	.	.	-5.8	24.9	-7.2	.
C=CCNCCCCOc1ccc(C)cc1[N+](=O)[O-]	-6.1	?	.	.	.	.	-4.9	-8.5	-10.4	.
OCC1(Cc2cccc(C(F)(F)F)c2)CCN(Cc2cc(F)cc(F)c2)CC1	13.7	1.8	-39.8	-51.0	-8.5	1.0	0.1	-46.4	15.5	i
Cc1ccc(C(c2sc3nc(C)nn3c2O)N2CCN(c3ccccc3F)CC2)cc1 (stereo not drawn)	1.8	6.4	.	.	.	.	1.3	-8.2	5.8	.
O=Cc1ccc(N2N=C(c3ccccc3)CC2c2ccccc2)cc1 (stereo not drawn)	-20.3	7.6	8.6	10.9	20.8	-23.7	3.1	-9.7	25.2	i
CCc1cc2c(=O)c(-c3ccc4c(c3)OCCO4)coc2cc1OS(C)(=O)=O	-4.3	1.8	-19.6	-22.2	-5.1	0.0	12.5	-3.2	38.6	.
Cc1cccc(C)c1Nc1nnc(SCC(=O)Nc2cc(S(=O)(=O)N3CCCCC3)ccc2Cl)s1	-6.5	3.3	-0.6	-8.6	4.9	0.7	.	1.0	5.9	i
